NOMO-1 viab: NOMO-1 AML cell viability reduction, primary screen, STK33 inhibitor project, CellTiter-Glo luminescence. NOMO-1 AML viability, 72 h. inhibition, % (no concentration beside the values). 7.5% of 37,000 active;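 active = most replicates above 80%; inconclusive = exactly half above 80%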;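 note: wells of about 30 µL received 25 nL stock; 0% = median of vehicle wells and 100% = reference inhibitor level; the first replicate is given; inactives centre near 10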
Active calls of the source: *; ? = inconclusive. These rows are one share of the data, so the mix of outcomes need not match the whole.

SMILES	NOMO-1 viab
Cc1ccc2nc(-c3cccnc3)cc(C(=O)NCc3cnn(C)c3)c2c1	28
O=C(CC1(O)C(=O)N(Cc2ccc(Cl)cc2)c2ccc(Cl)cc21)c1ccco1 (stereo unspecified)	114*
C[C@H](CO)N1C[C@H](C)[C@H](CN(C)C(=O)NC2CCCCC2)Oc2ccc(NS(=O)(=O)c3cn(C)cn3)cc2C1=O	8
C[C@H]1CN([C@@H](C)CO)C(=O)c2cccc(NS(=O)(=O)c3ccc(F)cc3)c2O[C@H]1CN(C)Cc1ccncc1	-2
Cc1noc(C)c1NC(=O)N(C)C[C@@H]1Oc2ccc(NC(=O)CCN3CCOCC3)cc2CC(=O)N([C@H](C)CO)C[C@H]1C	2
O=C(O)c1ccc(NS(=O)(=O)c2cc3c4c(cccc4c2)C(=O)NC3=O)cc1	140*
Cc1noc(C)c1S(=O)(=O)Nc1cccc2c1O[C@H](CN(C)Cc1ccc3c(c1)OCO3)[C@H](C)CN([C@@H](C)CO)C2=O	-7
Cc1noc(C)c1S(=O)(=O)Nc1ccc2c(c1)CC(=O)N([C@@H](C)CO)C[C@H](C)[C@H](CN(C)S(C)(=O)=O)O2	24
COC(=O)c1ccc(Cl)c(NC(=O)CN2CCN(Cc3ccccc3)CC2)c1	34
C[C@@H]1CN([C@@H](C)CO)C(=O)c2cccc(NC(=O)c3ccc(-c4nccs4)cc3)c2O[C@H]1CN(C)C(=O)NC1CCCCC1	-2
C[C@H](CO)N1C[C@H](C)[C@H](CN(C)S(=O)(=O)c2cccs2)Oc2ccc(NC(=O)CCC(F)(F)F)cc2C1=O	3
COc1ccc(CN(C)C[C@H]2Oc3ccc(NC(=O)NC(C)C)cc3C(=O)N([C@@H](C)CO)C[C@H]2C)cc1	-18
O=c1c2ccccc2cnn1Cc1n[nH]c(=S)n1-c1ccc(F)c(Cl)c1	-17
CC(C)NC(=O)Nc1ccc2c(c1)C(=O)N([C@H](C)CO)C[C@@H](C)[C@H](CN(C)S(=O)(=O)c1ccc(F)cc1)O2	15
C[C@@H]1CCCCO[C@H](CN(C)C(=O)Nc2cccc3ccccc23)[C@@H](C)CN([C@H](C)CO)C(=O)c2cc(NS(=O)(=O)c3ccc(Cl)cc3)ccc2O1	69
C[C@@H]1CN([C@H](C)CO)C(=O)c2cccc(NS(=O)(=O)c3ccc(Cl)cc3)c2O[C@H]1CN(C)Cc1ccc(C(=O)Nc2ccccc2N)cc1	67
COc1ccc(-[n+]2cc(=O)o[nH]2)cc1	20
Cc1ccnc(SCC(=O)Nc2ccccc2C)n1	22
COCCCNCCn1cnc2c(N)ncnc21	24
COc1ccc(NC(=O)Nc2ccc3c(c2)CC(=O)N([C@H](C)CO)C[C@@H](C)[C@H](CN(C)S(C)(=O)=O)O3)cc1	8
C[C@@H]1CN([C@@H](C)CO)C(=O)c2cccc(NC(=O)c3ccc(-c4nccs4)cc3)c2O[C@@H]1CN(C)C(=O)Nc1ccc(F)cc1	25
Cc1ccc(S(=O)(=O)Nc2ccc3c(c2)C(=O)N([C@H](C)CO)C[C@H](C)[C@@H](CN(C)Cc2ccccc2)OCCCC[C@@H](C)O3)cc1	30
O=c1cc(Oc2ccc(O)cc2)oc2cc(O[C@@H]3O[C@H](CO[C@@H]4O[C@H](CO)[C@@H](O)[C@H](O)[C@H]4O)[C@@H](O)[C@H](O)[C@H]3O)cc(O)c12	2
O=C(O)c1cc2ccc3cccc4ccc(c1)c2c34	33
O=C(CSc1nc(-c2ccccc2)cc(C(F)(F)F)n1)c1ccccc1	15
SMILES	NOMO-1 viab
Cc1nnc(SCC(=O)Nc2ccc(Cl)cc2Cl)[nH]c1=O	-4
Cc1ccc(S(=O)(=O)N(C)C[C@@H]2Oc3c(NS(=O)(=O)c4ccccc4)cccc3C(=O)N([C@@H](C)CO)C[C@@H]2C)cc1	-4
CC(C)NC(=O)Nc1cccc2c1O[C@@H](CN(C)Cc1ccc(Oc3ccccc3)cc1)[C@@H](C)CN([C@@H](C)CO)C2=O	-15
O=C(CCN1CCN(c2ccccc2)CC1)Nc1nccs1	27
COc1ccc(S(=O)(=O)N(C)C[C@H]2Oc3c(NS(=O)(=O)c4ccccc4)cccc3C(=O)N([C@H](C)CO)C[C@@H]2C)cc1	-3
C[C@@H]1CN([C@@H](C)CO)C(=O)c2cc(NS(=O)(=O)c3ccc(Cl)cc3)ccc2O[C@@H]1CN(C)C(=O)Nc1ccc(C(F)(F)F)cc1	14
C[C@H](CO)N1C[C@H](C)[C@@H](CN(C)S(=O)(=O)c2ccccc2)Oc2c(NC(=O)Nc3ccccc3)cccc2C1=O	8
COc1cc(S(C)=O)ccc1-c1nc2ncccc2[nH]1 (stereo unspecified)	20
C[C@H]1CN([C@@H](C)CO)C(=O)Cc2cc(NS(=O)(=O)c3ccc(Cl)cc3)ccc2O[C@@H]1CN(C)C(=O)Nc1ccc(C(F)(F)F)cc1	-6
C[C@H]1CN([C@@H](C)CO)C(=O)c2cccc(NS(=O)(=O)c3ccc(F)cc3)c2O[C@@H]1CN(C)C(=O)Nc1ccc2c(c1)OCO2	-5
Cc1noc(C)c1NC(=O)Nc1ccc2c(c1)C(=O)N([C@H](C)CO)C[C@H](C)[C@@H](CN(C)CC1CC1)OCCCC[C@@H](C)O2	16
CC(C)NC(=O)N(C)C[C@@H]1Oc2c(NC(=O)Nc3ccccc3)cccc2C(=O)N([C@H](C)CO)C[C@@H]1C	26
Cc1cc2nc(SCCN3CCCC3)[nH]c2cc1C	14
COc1cccc(NC(=O)Cn2cnc3c(sc4nc5c(cc43)COC(C)(C)C5)c2=O)c1	-3
Cn1c(SCC(=O)Nc2ccc(C(=O)O)cc2)nnc1-c1ccc(Br)cc1	-1
C[C@@H]1CN([C@H](C)CO)C(=O)Cc2cc(NS(=O)(=O)c3cn(C)cn3)ccc2O[C@@H]1CN(C)C(=O)Nc1ccc2c(c1)OCO2	-4
CC1=C(C(=O)Nc2ccccc2)C(c2ccccn2)n2ncnc2N1 (stereo unspecified)	7
CC(C)NC(=O)Nc1ccc2c(c1)C(=O)N([C@@H](C)CO)C[C@H](C)[C@@H](CN(C)C(=O)Nc1cccc3ccccc13)O2	5
COc1ccc(S(=O)(=O)Nc2ccc3c(c2)CC(=O)N([C@H](C)CO)C[C@@H](C)[C@H](CN(C)Cc2ccccc2)O3)cc1	-10
C[C@@H]1CN([C@H](C)CO)C(=O)c2cccc(NC(=O)c3nc4ccccc4s3)c2O[C@H]1CN(C)Cc1ccncc1	?
C[C@H](CO)N1C[C@H](C)[C@H](CN(C)C(=O)Nc2ccccc2)Oc2ccc(NC(=O)Nc3ccccc3)cc2CC1=O	35
C[C@@H]1CN([C@H](C)CO)C(=O)Cc2cc(NC(=O)C3CC3)ccc2O[C@@H]1CN(C)Cc1ccccc1	9
C=C1C(=O)O[C@H]2C[C@H](C)[C@@H]3CC(=O)C(C)=C3C[C@H]12	117*
O=S(=O)(NC1CCCCC1Sc1nnc(Nc2ccccc2)s1)c1ccccc1 (stereo unspecified)	30
O=C(CSc1nc2ccccc2c(=O)n1-c1ccccc1)Nc1cccc([N+](=O)[O-])c1	8

Shown as a markdown table: entries from further up
| compound | NOMO-1 viab |
| --- | --- |
| O=S(=O)(NC1CCCCC1Sc1nnc(Nc2ccccc2)s1)c1ccccc1 (stereo unspecified) | 30 |
| C[C@@H]1CN([C@H](C)CO)C(=O)c2cccc(NC(=O)c3nc4ccccc4s3)c2O[C@H]1CN(C)Cc1ccncc1 | ? |
| CC(C)NC(=O)Nc1ccc2c(c1)C(=O)N([C@@H](C)CO)C[C@H](C)[C@@H](CN(C)C(=O)Nc1cccc3ccccc13)O2 | 5 |
| C[C@@H]1CN([C@@H](C)CO)C(=O)c2cc(NS(=O)(=O)c3ccc(Cl)cc3)ccc2O[C@@H]1CN(C)C(=O)Nc1ccc(C(F)(F)F)cc1 | 14 |
| O=C(CCN1CCN(c2ccccc2)CC1)Nc1nccs1 | 27 |
| C[C@H]1CN([C@@H](C)CO)C(=O)Cc2cc(NS(=O)(=O)c3ccc(Cl)cc3)ccc2O[C@@H]1CN(C)C(=O)Nc1ccc(C(F)(F)F)cc1 | -6 |

Next results follow.
SMILES	NOMO-1 viab
COc1ccc(CN(C)C[C@@H]2Oc3c(NS(=O)(=O)c4ccc(OC)cc4)cccc3C(=O)N([C@@H](C)CO)C[C@@H]2C)cc1	-5
COc1ccccc1OC(=O)NC(C)C	-4
O=C(CSc1nnc(-c2ccccc2F)n1-c1ccccc1)Nc1ccccc1C(F)(F)F	36
CCN(CC)c1n[nH]nc1-c1cccc(Cl)c1	1
CC(=O)c1ccc(NC(=O)C(C)N2C(=O)C3C4C=CC(C5CC45)C3C2=O)cc1 (stereo unspecified)	6
C[C@H](CO)N1C[C@H](C)[C@H](CN(C)C(=O)Nc2ccccc2)Oc2ccc(NS(=O)(=O)c3cn(C)cn3)cc2CC1=O	-9
COc1ccc(S(=O)(=O)N(C)C[C@H]2Oc3c(NC(=O)Nc4ccccc4)cccc3C(=O)N([C@H](C)CO)C[C@H]2C)cc1	43
CC(=O)c1c(C)oc2ccc(N(C(C)=O)S(=O)(=O)c3cccc4cccnc34)cc12	51
Cc1noc(C)c1NC(=O)N(C)C[C@H]1Oc2ccc(NC(=O)Nc3ccccc3)cc2C(=O)N([C@H](C)CO)C[C@H]1C	3
CC(C)NC(=O)N(C)C[C@@H]1Oc2ccc(NC(=O)CCCN(C)C)cc2C(=O)N([C@@H](C)CO)C[C@H]1C	15
COc1ccc(C)cc1N(CC(=O)Nc1ccccc1-c1ccccc1)S(C)(=O)=O	17
CC(=O)OC1COC(OC2C(O)C(C)OC(OC3C(OC4CCC5(C)C(CCC6(C)C5CC=C5C7CC(C)(C)CCC7(C(=O)O)CCC56C)C4(C)CO)OCC(O)C3O)C2O)C(O)C1OC(C)=O (stereo unspecified)	122*
C[C@@H]1CN([C@@H](C)CO)C(=O)Cc2cc(NS(=O)(=O)c3ccc(Cl)cc3)ccc2O[C@@H]1CN(C)C	11
CS(=O)(=O)N(CC(=O)Nc1cccc(Br)c1)c1cc(Cl)c(Cl)cc1Cl	16
COc1ccc([N+](=O)[O-])cc1NC(=O)COc1ccc(Cl)cc1Br	22
C[C@H]1CN([C@@H](C)CO)C(=O)c2cc(N(C)C)ccc2O[C@H]1CN(C)C	3
C[C@@H]1CN([C@@H](C)CO)C(=O)c2cccc(NS(=O)(=O)c3cccs3)c2O[C@H]1CN(C)Cc1ccc(-c2ccccc2)cc1	16
C[C@@H]1CN([C@H](C)CO)C(=O)c2cccc(NS(=O)(=O)c3cn(C)cn3)c2O[C@H]1CN(C)C(=O)Nc1ccccc1	19
Cn1nnnc1SCC(=O)Nc1ccc(F)cc1	33
Cc1noc(C)c1NC(=O)N(C)C[C@H]1Oc2c(NS(=O)(=O)c3cn(C)cn3)cccc2C(=O)N([C@@H](C)CO)C[C@@H]1C	-9
COC(=O)c1ccc(C(=O)OC)c(NC(=O)COc2ccc(C)cc2)c1	13
Clc1ccc(Sc2cn[nH]c2-c2ccc3c(c2)OCCO3)cc1	?
C[C@@H]1CN([C@@H](C)CO)C(=O)c2cc(NC(=O)Cn3cnnn3)ccc2O[C@H]1CN(C)C	23
COc1ccc(S(=O)(=O)Nc2cccc3c2O[C@H](CN(C)C)[C@H](C)CN([C@H](C)CO)C3=O)cc1	2
C[C@@H]1CCCCO[C@@H](CN(C)C(=O)CCCN(C)C)[C@@H](C)CN([C@H](C)CO)C(=O)c2cc(NS(C)(=O)=O)ccc2O1	2
SMILES	NOMO-1 viab
CC1(C)Cc2c(sc3c2c(=O)n(-c2cccc(Cl)c2)c2nnc(SCC(=O)Nc4cccc(Cl)c4)n32)CO1	70
COc1ccc(NC(=O)N(C)C[C@H]2OCCCC[C@@H](C)Oc3ccc(NC(=O)Nc4c(C)noc4C)cc3C(=O)N([C@H](C)CO)C[C@@H]2C)cc1	0
O=C(NCCn1cc(Cl)cn1)Nc1cccc(Cl)c1Cl	20
Cc1ccc(S(=O)(=O)N(C)C[C@@H]2Oc3c(NC(=O)Nc4ccc5c(c4)OCO5)cccc3C(=O)N([C@H](C)CO)C[C@@H]2C)cc1	12
CC(C)NC(=O)Nc1ccc2c(c1)CC(=O)N([C@@H](C)CO)C[C@H](C)[C@@H](CN(C)S(=O)(=O)c1cccs1)O2	-2
Cc1ccc(S(=O)(=O)N(C)C[C@@H]2Oc3ccc(NC(=O)Nc4ccc(F)cc4)cc3C(=O)N([C@H](C)CO)C[C@H]2C)cc1	22
C[C@H](CO)N1C[C@H](C)[C@H](CN(C)C(=O)Nc2ccc3c(c2)OCO3)Oc2c(NC(=O)Nc3ccc4c(c3)OCO4)cccc2C1=O	1
O=C(CCN1C(=O)c2ccccc2C1=O)Nc1ccc(NC(=O)c2ccco2)cc1	26
C[C@H]1CN([C@@H](C)CO)C(=O)Cc2cc(NC(=O)Nc3cccc4ccccc34)ccc2O[C@@H]1CN(C)S(C)(=O)=O	1
COc1ccc(Nc2ncc(C#N)c(N)n2)c(OC)c1	-12
C[C@@H]1CN([C@H](C)CO)C(=O)c2cccc(NS(=O)(=O)c3ccccc3)c2O[C@H]1CN(C)C(=O)Nc1ccc(F)cc1	9
Cc1cccc(OCC(O)Cn2cnc3ccccc32)c1C (stereo unspecified)	48
C[C@H]1CN([C@@H](C)CO)C(=O)c2cccc(NS(=O)(=O)c3ccc(F)cc3)c2O[C@@H]1CN(C)S(=O)(=O)c1ccc(F)cc1	26
O=C(/C=C/c1ccc(O)cc1)O[C@@H]1CC(O)(C(=O)O)C[C@@H](OC(=O)/C=C/c2ccc(O)cc2)C1O (stereo partly specified)	15
Cc1ccc(S(=O)(=O)Nc2cccc3c2O[C@@H](CN(C)Cc2ccccc2)[C@H](C)CN([C@@H](C)CO)C3=O)cc1	-13

A section of the results above, for reference:
SMILES	NOMO-1 viab
O=C(/C=C/c1ccc(O)cc1)O[C@@H]1CC(O)(C(=O)O)C[C@@H](OC(=O)/C=C/c2ccc(O)cc2)C1O (stereo partly specified)	15
Cc1ccc(S(=O)(=O)Nc2cccc3c2O[C@@H](CN(C)Cc2ccccc2)[C@H](C)CN([C@@H](C)CO)C3=O)cc1	-13

Among those listed so far, three have bromine:
SMILES	NOMO-1 viab
Cn1c(SCC(=O)Nc2ccc(C(=O)O)cc2)nnc1-c1ccc(Br)cc1	-1
CS(=O)(=O)N(CC(=O)Nc1cccc(Br)c1)c1cc(Cl)c(Cl)cc1Cl	16
COc1ccc([N+](=O)[O-])cc1NC(=O)COc1ccc(Cl)cc1Br	22

Screens from PubChem BioAssay.
